# Bioassay records (PubChem)
# Rab2 wt GTP = modulators of GTP binding to Rab2A wildtype, primary screen, biochemical, dog, bead-based flow cytometry, multiplex; actives 0.19% (n = 190,000); GST-Rab2 wt beads, Bodipy-GTP binding; AID 760, 2007; Ras-related protein Rab-2A (Canis lupus familiaris), P61105; GTP binding activity, % at 10 µM;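 active = GTP binding activity at least 20 points away from 100%, either lowered or raised; inconclusive = signal likely due to the compound's own green fluorescence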;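 note: 0% = beads with excess unlabeled GTP and 100% = no-compound control corrected for plate trend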
# Pf gamet viab = late stage P. falciparum gametocyte viability inhibitors, primary screen, ATP luminescence, HTS | inhibition, % at 10.9 µM | actives 0.065% (n = 150,000) | P. falciparum stage V gametocytes, 24 h;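 active = inhibition above the mean plus 3 SD of compounds within the control limits, set per campaign, cut at about 38% in these data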;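 note: 0% = DMSO wells and 100% = medium only without gametocytes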
# Rac1 wt modul = wildtype Rac1 GTP binding modulators, primary screen, biochemical, GST-Rac1 beads, flow cytometry, multiplex; Ras-related C3 botulinum toxin substrate 1 (Homo sapiens), P63000; fluorescent GTP binding; actives lie on both sides; 0 = cold GTP competed, 100 = untreated; GTP binding activity (% of control), % at 10 µM; actives 0.27% (n = 190,000); AID 757, 2007;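 active = GTP binding activity at least 20 points away from the 100% control level, either lower or higher; inconclusive = compound flagged as likely green fluorescent, judged across all proteins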
# Rab7 wt modul = modulators of GTP binding to Rab7, primary screen, biochemical, wildtype, multiplex bead flow cytometry | actives 0.055% (n = 190,000) | AID 758, 2007 | GST-Rab7 beads, fluorescent GTP binding; actives lie on both sides; untreated = 100%, excess cold GTP = 0% | GTP binding activity (percent of control), % at 10 µM | Rab7 GTPase wild type (dog), Bodipy-FL-GTP binding;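 active = fluorescent GTP binding to Rab7 beads changed by at least 20 points from the 100% baseline, either direction, mostly lower; inconclusive = compound itself probably fluorescent, or too few beads counted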;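 note: median green fluorescence of bound Bodipy-FL-GTP per Rab7 bead population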
# Cdc42 wt = modulators of GTP binding to wildtype Cdc42, primary screen, biochemical, multiplex bead flow cytometry, Bodipy-GTP; Cell division control protein 42 homolog (Homo sapiens), P60953; percent activity (GTP binding), % at 10 µM; GST-Cdc42 beads; actives lie on both sides; actives 0.2% (n = 190,000);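 active = percent activity GTP binding at least 20 points away from the 100% baseline, either down as inhibitor or up as activator; inconclusive = compound flagged as likely green fluorescent from well-wide comparison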;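 note: median bead fluorescence of bound Bodipy-FL-GTP at 100 nM; 0% = excess unlabeled GTP control and 100% = no compound control; below 100% means less GTP binding so inhibitor and above means activator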
# Target sequence (P60953 whole entry, looked up): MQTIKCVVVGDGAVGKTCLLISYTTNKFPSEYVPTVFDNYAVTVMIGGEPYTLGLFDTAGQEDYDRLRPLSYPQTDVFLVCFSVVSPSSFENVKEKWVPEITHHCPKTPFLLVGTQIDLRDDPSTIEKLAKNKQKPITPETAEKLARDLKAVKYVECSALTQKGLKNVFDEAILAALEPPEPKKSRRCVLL
# RGS8-Gao reg = RGS8-Galphao binding modulators, primary screen, biochemical, multiplexed bead flow cytometry. AID 1423, 2008. actives 0.34% (n = 220,000). response (percent of control binding), % at 10 µM. actives lie on both sides; in the data active = response below about 60% or above about 140%; inactive = in between;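 note: Galphao activated as the GDP aluminium fluoride complex binding bead-coupled RGS8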
# Target sequence (P09471 whole entry, looked up): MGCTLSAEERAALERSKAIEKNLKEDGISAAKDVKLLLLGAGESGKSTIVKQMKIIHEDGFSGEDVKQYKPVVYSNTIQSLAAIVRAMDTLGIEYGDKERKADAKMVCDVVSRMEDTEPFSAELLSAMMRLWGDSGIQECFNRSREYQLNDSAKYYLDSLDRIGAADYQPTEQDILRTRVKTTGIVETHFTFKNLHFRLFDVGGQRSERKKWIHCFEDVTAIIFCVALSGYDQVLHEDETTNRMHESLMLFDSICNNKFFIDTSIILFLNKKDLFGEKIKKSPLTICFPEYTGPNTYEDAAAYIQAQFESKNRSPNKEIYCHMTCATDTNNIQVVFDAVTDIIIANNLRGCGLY
# HRas wt GTP = modulators of GTP binding to HRas wildtype, primary screen, biochemical, bead-based flow cytometry, multiplex. actives 0.14% (n = 190,000). GST-Ras wt beads, Bodipy-FL-GTP binding; actives lie on both sides. GTPase HRas (Homo sapiens), P01112. GTP binding activity, % at 10 µM;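 active = GTP binding activity at least 20% away from the 100% baseline, either lowered as inhibitor or raised as activator; inconclusive = flagged as likely green fluorescent, judged across all proteins in the well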;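 note: 0% = unlabeled GTP competition control and 100% = no-compound control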
# Target sequence (P01112 whole entry, looked up): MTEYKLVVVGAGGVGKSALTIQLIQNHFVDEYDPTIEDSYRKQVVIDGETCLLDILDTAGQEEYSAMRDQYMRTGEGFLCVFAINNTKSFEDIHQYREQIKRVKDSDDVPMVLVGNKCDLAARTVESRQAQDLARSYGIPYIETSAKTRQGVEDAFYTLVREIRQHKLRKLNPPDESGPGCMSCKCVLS
# Rac1 act GTP bind = GTP binding modulators of activated mutant Rac1, primary screen, biochemical, bead-based flow cytometry, multiplex, fluorescent GTP; Ras-related C3 botulinum toxin substrate 1 (Homo sapiens), P63000; GST-Rac1 activated beads; actives lie on both sides; 100% means binding = to untreated wells; percent activity (GTP binding), % at 10 µM; actives 0.11% (n = 190,000); AID 764, 2007;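 active = GTP binding at least 20 percentage points away from the 100% baseline, in either direction, so actives lie on both sides; inconclusive = Compound likely fluorescent itself, or too few beads counted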
# Active calls of the source: *; u = inconclusive; x = no result given; ! = not active in a repeat.
SMILES,Rab2 wt GTP,Pf gamet viab,Rac1 wt modul,Rab7 wt modul,Cdc42 wt,RGS8-Gao reg,HRas wt GTP,Rac1 act GTP bind
Cc1ccc(O)c(NC(=S)NC(=O)c2ccccc2Cl)c1,99,5,96,106,97,100,99,96
NC1=NC2(CCN(Cc3ccccc3)CC2)n2c(nc3ccccc32)N1,100,-1,102,103,100,105,100,98
CCN1CCN(C(=O)c2nn(-c3ccc(OC)cc3)c(=O)c3c2c2ccccc2n3C)CC1,100,x,104,99,104,97,102,101
Clc1ccc(OCCOCCN2CCc3ccccc3C2)c(Cl)c1,97,x,102,99,102,107,99,98
CCOC(=O)c1sc(Nc2nc3ccc(OC)cc3s2)cc1C,94,7,98,98,97,102,96,94
COc1cccc(-c2nc(C(N)=O)c3[nH]c(=O)n(-c4cccc(Cl)c4)c3n2)c1OC,102,x,107,101,101,100,101,103
COc1ccc(C2NC(c3ccc(OC)cc3OC)C(C)C(=O)C2C)c(OC)c1 (stereo unspecified),97,x,101,104,97,98,99,96
O=C(CSc1ccc(C(F)(F)F)cc1[N+](=O)[O-])NCCOc1ccccc1,99,22,101,100,100,102,100,95
CCOc1cccc(C(=O)Nc2cccc(C(C)=O)c2)c1,103,-20,104,107,105,90,105,102
Cc1ccc(-c2nn(-c3ccccc3)c3[nH]c(=O)c(CNCc4ccccc4)cc23)cc1,99,-4,100,101,98,107,100,98
CCn1c(CNC(=O)COc2ccc(C(C)C)cc2)nnc1SCC(=O)Nc1ccccc1,102,x,107,99,103,99,100,101
CCCCOc1ccc(CNC(=S)N/N=C/c2ccc(OC)c(OC)c2)cc1,99,-11,98,103,101,96,100,97
O=c1/c(=C/c2ccc(O)cc2)sc2nc3cc(Br)cnc3n12,96,x,96,98,96,100,95,95
CCc1cc2c(NCCC(=O)O)ncnc2s1,105,x,113,107,107,105,106,102
CN1C(=O)C(CC(=O)Nc2ccc(F)cc2)N(CCCc2ccccc2)C1=S (stereo unspecified),103,x,103,101,102,99,103,103
Cc1ccc(N=Cc2c(O)[nH]c3ccccc23)c([N+](=O)[O-])c1,91,4,101,93,93,99,95,94
CCOc1ccc(Cn2c3ccc(OC)cc3c3nc4ccccc4nc32)cc1OC,99,-10,105,97,97,101,102,98
CCOc1ccc(N2C(=O)/C(=C/c3ccc(C)o3)N(C)C2=S)cc1,99,5,105,101,101,89,100,99
COc1cccc(NC(=O)COc2ccc(S(=O)(=O)NC(C)C)cc2)c1,101,-12,104,100,100,100,101,99
O=C(CSc1nc(C2CC2)nc2c1cnn2-c1ccccc1)Nc1c[nH]c(=O)[nH]c1=O,94,-26,100,101,95,99,97,96
O=C(Cn1cnc2sc(-c3ccccc3)cc2c1=O)N1CCOCC1,101,x,104,98,103,94,101,100
CCC1CCCCN1C(=O)c1c[nH]c2ccc(S(=O)(=O)N(C)c3ccc(Cl)cc3)cc2c1=O (stereo unspecified),97,17,102,99,99,103,101,97
CC(=O)c1sc(Nc2nc3cc4c(cc3s2)OCO4)nc1C,89,5,91,91,92,95,90,91
Cc1ccc(Nc2nc(CSc3nnnn3-c3ccccc3)cc(=O)[nH]2)cc1,98,15,101,101,100,102,98,97
CC1(C)NC(=O)N(CNc2cc(Cl)ccc2Cl)C1=O,100,x,104,101,104,100,102,99

# Further compounds:
SMILES,Rab2 wt GTP,Pf gamet viab,Rac1 wt modul,Rab7 wt modul,Cdc42 wt,RGS8-Gao reg,HRas wt GTP,Rac1 act GTP bind
Cc1nc2cc(F)ccc2n1C1CCN(S(=O)(=O)c2ccccc2)CC1,99,-6,107,101,101,98,100,97
COc1ccc(-c2cc(-c3n[nH]c(=S)n3-c3cc(OC)ccc3OC)[nH]n2)cc1,97,-11,98,97,99,86,98,96
NC(=O)c1nc(-c2cccs2)nc2c1[nH]c(=O)n2-c1ccc(F)cc1,99,x,97,106,91,99,97,95
O=C(Cn1cncc1-c1ccc([N+](=O)[O-])cc1)Nc1cccc2ccccc12,100,3,101,96,102,120,97,100
COc1ccc(Nc2ncccc2C(=O)Nc2ccccc2)cc1,99,x,107,99,104,94,102,101
N#CC(c1ccccc1F)(c1ncc(C(F)(F)F)cc1Cl)N1CCOCC1 (stereo unspecified),101,8,106,102,106,92,105,100
CCOc1cc(S(=O)(=O)NCCN2CCOCC2)c(C)cc1C,107,-12,103,103,108,99,106,103
CC1=C(C(=O)Nc2cccnc2)C(c2ccncc2)n2nnnc2N1 (stereo unspecified),99,-36,106,99,103,95,101,99
Cn1c(N/N=C2\CCCc3ccccc32)nc2c1c(=O)n(Cc1ccccc1)c(=O)n2C,97,10,103,98,102,104,99,99
COc1ccc(NC(=O)C2(c3ccc(NC(=O)c4ccc(OC)c(OC)c4)cc3)CCCC2)cc1,93,12,92,94,97,97,95,93
CCOC(=O)c1c(NC2OC(=O)c3c2ccc(OC)c3OC)sc(C(=O)OC(C)(C)C)c1C (stereo unspecified),81,9,85,89,82,87,83,86
N#Cc1cccc(Oc2ccc(-c3cnc4ccccc4n3)cc2)c1C#N,99,x,103,101,102,101,100,100
CCC(=O)Nc1nc2ccccc2n1CCN(CC)CC,99,x,100,97,102,96,100,100
COc1ccc(CC(=O)Nc2nnc(-c3cccc([N+](=O)[O-])c3)s2)cc1,103,x,103,105,99,103,102,100
Cc1nnc(SCc2nc(N)nc(Nc3ccccc3)n2)s1,96,1,99,95,97,91,95,97
CC(C)C(=O)Nc1ccc(C(=O)Nc2nnc(C(C)(C)C)s2)cc1,98,-32,99,105,97,103,100,94
COc1ccccc1CNC(=O)c1cnn2c(C(F)F)cc(C)nc12,102,x,104,103,104,102,103,99
Cc1cc2c(C)nc(N/N=C/c3ccc([N+](=O)[O-])cc3)nc2o1,96,5,100,95,100,100,97,100
CCOC(=O)c1cnn(-c2ccccc2)c1NC(=O)c1ccc(C)cc1,101,19,105,101,103,102,102,100
Cc1c2cc(O)c(=O)cc-2oc2cc(O)c(O)cc12,x,x,u,x,u,31*!,u,u
COC(=O)NNC(=O)c1ccc(C(C)(C)C)cc1,100,-20,104,99,97,99,101,99
COc1cc(/C=N\Nc2ccc([N+](=O)[O-])cc2)ccc1OCC(=O)Nc1ccc(C)c(C)c1,100,x,101,103,101,100,102,98
CCOC(=O)c1sc(Nc2nc3c(OC)cccc3s2)cc1C,99,x,98,98,98,100,98,98
CCN1C(=O)/C(=C/c2nc3ccccc3c(=O)[nH]2)c2ccccc21,104,12,106,103,102,104,103,101
CCCCn1nnnc1NCc1ccc(C)s1,97,16,101,91,97,112,97,97

# A few values from the list.
# Result for COc1ccc(NC(=O)C2(c3ccc(NC(=O)c4ccc(OC)c(OC)c4)cc3)CCCC2)cc1 in Cdc42 wt: 97
# Result for N#CC(c1ccccc1F)(c1ncc(C(F)(F)F)cc1Cl)N1CCOCC1 (stereo unspecified) in Rac1 act GTP bind: 100
# Result for COc1cc(/C=N\Nc2ccc([N+](=O)[O-])cc2)ccc1OCC(=O)Nc1ccc(C)c(C)c1 in Rab2 wt GTP: 100
# Result for CCOC(=O)c1cnn(-c2ccccc2)c1NC(=O)c1ccc(C)cc1 in Pf gamet viab: 19

# Continuation.
SMILES,Rab2 wt GTP,Pf gamet viab,Rac1 wt modul,Rab7 wt modul,Cdc42 wt,RGS8-Gao reg,HRas wt GTP,Rac1 act GTP bind
COc1ccccc1C1/C(=C(/O)c2ccccc2)C(=O)C(=O)N1CC(C)O (stereo unspecified),96,x,100,96,98,102,97,96
COC(=O)c1sc2nc(-c3ccco3)ccc2c1N,u,-14,u,u,u,98,u,u
O=C(CCc1ccc(S(=O)(=O)NC2CCCCC2)cc1)NCc1ccccc1,101,14,107,99,104,103,104,100
O=C(Nc1cccc(-c2nc3ccccc3o2)c1)c1cccnc1,94,18,93,96,93,104,94,93
CCN(CC)CCn1c(NC(=O)c2ccc(C(F)(F)F)cc2)nc2ccccc21,98,12,100,108,95,102,99,93
O=C(COc1ccc2ccccc2c1)N/N=C/c1ccccn1,97,2,98,100,96,103,95,96
COc1ccc(N(C(C)=O)S(=O)(=O)c2cccc3cccnc23)cc1,100,-19,109,101,101,102,102,98
COCCNc1nc(CSc2ccccc2)nc2sc(C)c(C)c12,96,0,99,98,95,100,96,96
O=C1C2ON(c3ccc(Cl)cc3)C(c3ccco3)C2C(=O)N1c1ccccc1 (stereo unspecified),99,x,101,100,99,98,98,98
Cc1cc(CSc2ccccc2)ccc1NC(=O)COc1ccccc1,104,x,101,103,101,108,102,97
O=C(/C=C/c1ccccc1)Nc1nc(-c2ccncc2)cs1,96,19,95,103,93,117,96,95
Cc1cccc(NC(=O)CCc2ccc(S(=O)(=O)NC3CCCCC3)cc2)c1,101,x,105,99,104,105,103,100
CN1CCN(C(=O)/C=C\c2ccc(Cl)cc2)CC1,99,6,102,97,104,105,101,101
O=C(Nc1ccccc1Cl)c1ccccc1S(=O)(=O)c1ccccc1[N+](=O)[O-],101,-7,111,102,111,96,104,103
COc1ccc(NC(=O)CSc2nc3ccccc3c3nc4ccccc4n23)cc1,101,2,105,101,103,112,103,102
CCC(=O)N(CCC(c1ccccc1)c1ccco1)Cc1cccs1 (stereo unspecified),99,x,103,100,102,95,102,98
CCc1nc(-c2cc3ccc(C)cc3[nH]c2=O)no1,103,x,108,105,103,105,104,103
CCCCCn1c(=NC(C)=O)c(C#N)cc2c(=O)n3ccccc3nc21,106,x,103,107,107,92,106,99
Cc1cccc(C)c1NC1=C(Cl)C(=O)OC1OC(C)C (stereo unspecified),100,5,97,102,98,104,101,101
Cc1cccc(C)c1Nc1nnc(SCC(=O)NC(=O)c2cccn2C)s1,98,-13,105,102,103,98,99,100
COc1ccc(OC)c2sc(NC(=O)c3ccc(S(=O)(=O)N(C)C)cc3)nc12,102,x,107,101,101,93,102,101
O=C(c1ccco1)N(CCC(c1ccccc1)c1ccco1)Cc1ccccc1 (stereo unspecified),95,7,100,97,99,89,96,97

# Shown with values under each structure: part of the list above.
# Sequence of screens: Rab2 wt GTP	Pf gamet viab	Rac1 wt modul	Rab7 wt modul	Cdc42 wt	RGS8-Gao reg	HRas wt GTP	Rac1 act GTP bind
> CCOC(=O)c1cnn(-c2ccccc2)c1NC(=O)c1ccc(C)cc1
 : 101	19	105	101	103	102	102	100
> O=C(Cn1cncc1-c1ccc([N+](=O)[O-])cc1)Nc1cccc2ccccc12
 : 100	3	101	96	102	120	97	100
> COc1ccc(CC(=O)Nc2nnc(-c3cccc([N+](=O)[O-])c3)s2)cc1
 : 103	x	103	105	99	103	102	100
> NC(=O)c1nc(-c2cccs2)nc2c1[nH]c(=O)n2-c1ccc(F)cc1
 : 99	x	97	106	91	99	97	95
> CCOc1ccc(N2C(=O)/C(=C/c3ccc(C)o3)N(C)C2=S)cc1
 : 99	5	105	101	101	89	100	99
> COc1ccc(Nc2ncccc2C(=O)Nc2ccccc2)cc1
 : 99	x	107	99	104	94	102	101

# Only part of the results is shown; the hit share may differ from the screen's.
